# LASV entry inh = qHTS for Inhibitors of binding or entry into cells for Lassa Virus | 300,000 compounds, 1.2% hits | Lassa virus pseudotype entry inhibition, cell reporter; control for the full effect not named in the record | Potency, µM (highest dose often 37.9 µM), for the others: top-dose activity change, negative = inhibition, actives largely listed as inhibitors; active means well fitted inhibition curve with a large enough effect; inconclusive means small, poorly fitted or top-dose-only effect, or effect the other way; inactive means flat fitted curve, though single readings scatter; tested in HEK293 cells; further: on the % scale 0 is the no-effect control and ±100 the full control effect; nearly all actives have a fitted effect of over 50% in size; luciferase read-out
# NS1 function inh = qHTS Assay for Inhibitors of Influenza NS1 Protein Function | 270,000 compounds, 0.4% hits | S. cerevisiae slowed by influenza A NS1, growth recovery by OD600 | Potency, µM (doses to about 46.1 µM), without a hit: top-dose activity, positive = more growth | AID 2326, 2010; active means well fitted rising curve with a large enough effect; inconclusive means small, poorly fitted or top-dose-only effect; inactive means no such curve, though single readings can be large or run the other way; further: nearly all actives have a fitted effect of over 50% in size
#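 Read-out: OD600 growth recovery of NS1-expressing budding yeast. Cells grown overnight at 30C in -URA glucose medium, washed, resuspended and diluted 1:100 in 2% galactose assay medium, pH 6.0. Same strain lacking NS1 served as positive control.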
# Cruzain noTriton = qHTS Assay for Promiscuous and Specific Inhibitors of Cruzain (without detergent). Potency, µM, for the others: max response, negative = inhibition, usual class: inhibitors. 200,000 compounds, 2.3% hits. purified cruzain, Z-FR-AMC fluorescence, no detergent;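 further: plate controls were enzyme without inhibitor for no effect and buffer without enzyme for full effect; nearly all actives have a fitted effect of over 40% in size; top concentration of the series not given in the record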
# Target sequence (P25779 123-467 limits assumed): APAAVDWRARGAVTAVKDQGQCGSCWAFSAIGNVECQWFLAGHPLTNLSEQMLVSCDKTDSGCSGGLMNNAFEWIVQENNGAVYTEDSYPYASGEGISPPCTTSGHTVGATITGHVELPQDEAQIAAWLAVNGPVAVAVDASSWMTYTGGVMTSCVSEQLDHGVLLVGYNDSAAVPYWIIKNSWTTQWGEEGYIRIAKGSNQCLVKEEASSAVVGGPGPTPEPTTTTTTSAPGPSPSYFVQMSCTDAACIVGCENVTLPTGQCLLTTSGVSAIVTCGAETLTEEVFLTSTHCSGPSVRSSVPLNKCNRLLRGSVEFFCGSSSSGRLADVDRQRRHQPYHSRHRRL
#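 Purified cruzain at 1.5 nM, pre-incubated 15 min with compound at room temperature in 100 mM sodium acetate pH 5.5, 5 mM DTT, 0.00005% Triton X-100. Reaction started with 2 uM Z-FR-AMC; AMC fluorescence increase over 60 s gives rate.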
# 2A StopGo = High Throughput Screening for Foot and Mouth Disease Virus Antivirals | Potency, µM (titrated, usually from 57.9 µM), without a hit: at the top dose signal change, negative = less light | 410,000 compounds, 1.2% hits | AID 1159524, 2015 | human cells with a luciferase reporter of 2A StopGo recoding; control for the full effect not named in the record; active = well fitted falling curve with a large enough effect; inconclusive = small, poorly fitted or top-dose-only effect; inactive = no such curve, though single readings can be large or run the other way; tested in HEK293T cells; further: on the % scale 0 is the no-effect control and ±100 the full control effect; nearly all actives have a fitted effect of over 45% in size; luciferase light after 4 h
# MARV entry inh = qHTS for inhibitors of binding or entry into cells for Marburg Virus; 300,000 compounds, 1.8% hits; Potency, µM (titrated, usually from 37.8 µM), inactives show at the top dose activity change, negative = inhibition, hits mostly inhibitors; Marburg virus pseudotyped entry inhibition, cell reporter; control for the full effect not named in the record; about a third of the inactives were read at about 46 µM; active = well fitted inhibition curve with a large enough effect; inconclusive = small, poorly fitted or top-dose-only effect, or effect the other way; inactive = flat fitted curve, though single readings scatter; tested in HEK293 cells; about a fifth of its hits are not listed in these tables; further: on the % scale 0 is the no-effect control and ±100 the full control effect; luciferase read-out
# RE007 growth inh = qHTS Assay for Inhibitors of the HIV-1 protein Vpr; S. pombe RE007 Vpr strain, BacTiter-Glo ATP luminescence, 24 h; control for the full effect not named in the record; Potency, µM (titrated, usually from 92.2 µM), for inactives: at the highest dose activity change, negative = less growth; 360,000 compounds, 0.21% hits; active = well fitted falling curve with a large enough effect; inconclusive = small, poorly fitted or top-dose-only effect; inactive = no such curve, though single readings can be large or run the other way;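 further: on the % scale 0 is the no-effect control and ±100 the full control effect; nearly all actives have a fitted effect of over 50% in size; the assay follows cell death caused by Vpr and the record does not say whether a fall means rescue or toxicity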
#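 Fission yeast RE007 carrying one integrated HIV-1 vpr copy, seeded at OD 0.01 in PMG+AL medium with 23 nL pinned compound. Grown 24 h at 30 degrees; viability read by BacTiter-Glo luminescence after 5 min.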
# Cruzain Triton = qHTS Assay for Promiscuous and Specific Inhibitors of Cruzain (with detergent). AID 1478, 2009. purified cruzain, Z-FR-AMC fluorescence, 0.01% Triton. Cruzipain (Trypanosoma cruzi), P25779. 200,000 compounds, 0.43% hits. Potency, µM, for the others: max response, negative = inhibition, usual class: inhibitors;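 further: plate controls were neutral wells for no effect and buffer without enzyme for full effect; nearly all actives have a fitted effect of over 40% in size; top concentration of the series not given in the record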
#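 Enzyme 1.5 nM, Z-FR-AMC 2 uM, NaOAc 100 mM pH 5.5, DTT 5 mM, Triton X-100 0.01%; 15 min RT compound preincubation; kinetic ex360/em450, 60 s delta.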
# SARS PLP yeast = qHTS of Yeast-based Assay for SARS-CoV PLP; 330,000 compounds, 0.19% hits; S. cerevisiae expressing SARS-CoV PLpro, growth rescue; control for the full effect not named in the record; Potency, µM (highest dose often 32.9 µM), for inactives: at the top dose activity, positive = growth rescue; active means well fitted rising curve with a large enough effect; inconclusive means small, poorly fitted or top-dose-only effect; inactive means no such curve, though single readings can be large or run the other way; further: 0% is about no effect; nearly all actives have a fitted effect of over 55% in size; growth read by luminescence after 48 h
# Starred values were filed as active, the others as inactive; ? = inconclusive; . = no result given; & = joins results of further samples; [ ] = another dose, or the depositor's remark. Unless noted, the call rests on the fitted dose curve; in most records, active means well fitted curve in the direction sought with a large enough effect; inconclusive means small, poorly fitted or top-dose-only effect, or another doubt; inactive means no such curve, though single readings can be large; an effect the other way counts as inactive or inconclusive. Potency means the concentration at half of the fitted maximal effect.
no.	mol	MARV entry inh	2A StopGo	RE007 growth inh	LASV entry inh	SARS PLP yeast	NS1 function inh	Cruzain Triton	Cruzain noTriton
1	Cc1cccc(OCc2nc3ccccc3c(=O)n2N)c1	?	29%	4%	?	0%	-63%	-0.1%	2%
2	O=C(Nc1cccc(F)c1)Nc1ccnn1C1CCN(C(=O)c2cscn2)CC1	?	29%	13%	10%	2%	4%	.	.
3	Cc1ccc(S(=O)(=O)N2CCOCC2)cc1C(=O)O	-2%	6%	1%	-12%	7%	-8%	5.3%	2%
4	CCOC(=O)C1(CCOc2ccccc2)CCN(Cc2ccc(COC)o2)CC1	-2%[46.1 µM]	-28%	-13%	-22%[46.1 µM]	-1%	3%	.	.
5	O=C(Nc1ccc(C(=O)N2CCN(c3ccc(F)cc3)CC2)cc1)C1=CSCCO1	.	-9%	2%	.	0%	2%	.	.
6	CCN(CC)S(=O)(=O)c1ccc(NC(=O)COC(=O)c2cc(S(=O)(=O)Nc3ccc(OC)cc3)ccc2O)cc1	4%	20%	-4%	-1%	0%	?	.	.
7	CN(C(=O)c1cccc([N+](=O)[O-])c1)c1ccccc1C(=O)NCc1ccccc1	?	-8%	-6%	0%	-6%	5%	.	.
8	COc1cccc(CNC(=O)Cn2c(C)c3cnn(-c4ccccc4)c(=O)c3c2C)c1	1%[46.1 µM]	9%	.	0%[46.1 µM]	.	.	-1.5%	3%
9	N#CCCN1CCN(C2=NC(=O)/C(=C\c3cccs3)S2)CC1	?	31%[activator]	-17%	2%	2%	.	.	.
10	CC1=C(C(=O)Nc2ccccc2C)C(c2ccc(C)o2)NC(=S)N1 (stereo not drawn)	26%	-20%	2%	7%	-3%	2%	-4.3%	-8%
11	Cc1cc([N+](=O)[O-])nn1CC(=O)c1ccccc1	.	-2%	16%	.	0%	4%	.	.
12	CC1CCCCN1C(=O)c1ccc(NC(=O)c2ccccc2Cl)cc1 (stereo not drawn)	.	-9%	-10%	.	0%	0%	.	.
13	CC(C)(C)n1cc(S(=O)(=O)c2ccccc2)[nH]c1=O	29%[46.1 µM]	9%	9%	-2%[46.1 µM]	-1%	-2%	.	.
14	CCOC(=O)c1c(C)[nH]c(C)c1S(=O)(=O)N1CCC(C(=O)NCc2ccc(N(C)C)cc2)CC1	.	-5%	.	3%[46.1 µM]	.	.	3.2%	-5%
15	CCc1ccc(Oc2nc3c(C)cccn3c(=O)c2/C=C(\C#N)c2nc3ccccc3[nH]2)cc1	-11%[46.1 µM]	-17%	.	1%[46.1 µM]	.	.	-0.9%	8%
16	Cc1ccc(S(=O)(=O)N(CCC(=O)N2CCOCC2)c2ccccc2)cc1	23%	10%	-9%	22%[46.1 µM]	2%	.	.	.
17	COc1cccc(C2C(C(=O)OCc3ccccc3)=C(C)Nc3ncnn32)c1OC (stereo not drawn)	.	-5%	-2%	.	9%	0%	-1.2%	11%
18	CCOC(=O)c1c(C)[nH]c(C(=O)OCC(=O)Nc2cc(Cl)ccc2OC)c1C	?	-13%	-14%	-21%	2%	14%	10%	22%
19	Cc1coc2c(C)c3oc(=O)c(CC(=O)N4CCCCC4)c(C)c3cc12	6%[46.1 µM]	2%	.	24%[46.1 µM]	.	.	-0.9%	-10%
20	CC(=O)Nc1cccc(OCCCNS(=O)(=O)c2ccc(C#N)cc2)c1	?	1%	-21%	-13%[46.1 µM]	3%	4%	.	.
21	Cc1ccccc1NC(=O)CCN1C(=O)CSC1=O	36%	11%	1%	11%	24%	2%	3.2%	8%
22	COc1ccc(NC(=O)CN(c2ccc([N+](=O)[O-])cc2)S(=O)(=O)c2ccccc2)cc1	?	-7%	-17%	?	-8%	?	-5.8%	-6%
23	O=C(OCCCOC(=O)c1ccc([N+](=O)[O-])o1)c1ccc([N+](=O)[O-])o1	6%	-28%	-10%	-14%	.	.	.	.
24	O=C(COc1ccccc1-c1ccccc1)N/N=C/c1ccc2ccccc2c1	?	-12%	3%	1.8µM*	-2%	1%	-1.7%	20µM*
25	COc1ccc(/C=C2\SC(=S)N(CCCC(=O)N3CCN(C)CC3)C2=O)cc1	?	5%	-14%	?	1%	-9%	.	.
26	Cc1cccc(N2CCC(N3CCN(C4CCCCC4)C(CCO)C3)CC2)c1C (stereo not drawn)	?	?	-15%	6%[46.1 µM]	-2%	2%	.	.
27	Cc1cccc(OCc2nnc(SCC(=O)Nc3cc(C)on3)n2C)c1	0%	-5%	-4%	-2%	8%	11%	2.1%	?
28	O=C(c1ccc([N+](=O)[O-])s1)N1CCc2ccccc2C1	24%[46.1 µM]	12%	-24%	0%	1%	.	.	.
29	COc1ccc(C2CC(c3ccc(F)cc3)n3nc(NC(=O)c4ccco4)nc3N2)cc1 (stereo not drawn)	.	-18%	15%	.	-1%	6%	.	.
30	Cc1[nH]n(C(N)=S)c(=O)c1N=Nc1cccc(C(F)(F)F)c1	15%	26%	3%	-28%	0%	-2%	.	.
31	CCOC(=O)c1ccc(N2CN(CCc3ccccc3)CNC2=S)cc1	?	5%	-4%	?	6%	11%	-3.6%	9%
32	Cn1c(=O)c(C#N)c(-c2ccc(F)cc2)c2cc(C(=O)c3cc(Cl)cc(Cl)c3O)cnc21	.	?	-4%	.	-18%	-104%	.	.
33	O=C(CN1CCCN(Cc2ccc(F)cc2Cl)C1=O)NCc1ccccc1	-4%	-6%	-9%	-16%	-1%	-1%	4.7%	-2%
34	CCc1sc(C(=O)N2CCN(c3ncccn3)CC2)cc1Br	.	-26%	-11%	.	-9%	2%	.	.
35	CCc1nnc(NC(=O)c2ccc(S(C)(=O)=O)cc2)s1	.	30%	-4%	.	0%	-4%	.	.
36	CCOC(=O)c1ccc(NC(=O)CCC(=O)OC)cc1	-7%	13%	10%	14%	-19%	-3%	-0.5%	-5%
37	CCOc1ccc(N2C(=O)/C(=C/c3ccco3)C(=O)NC2=S)cc1	.	-17%	0%	.	-3%	13%	.	.
38	Cc1cccc2nc3ccccc3nc12	?	0%	?	?	0%	.	.	.
39	Cc1ccc(CNC(=O)C2CCN(Cc3nc(-c4ccccc4C)oc3C)CC2)cc1	-5%[46.1 µM]	?	.	2%[46.1 µM]	.	.	1.6%	3%
40	CC1CCCCC1NC(=O)CCN1C(=O)C2C3C=CC(C3)C2C1=O (stereo not drawn)	-15%[46.1 µM]	-8%	3%	?	-2%	?	.	.
41	Cc1cc(NC(=O)/C=C/c2ccccc2)c(C(C)C)cc1O	.	10%	-2%	.	0%	-2%	.	.
42	O=c1cc(CO)oc(C(Nc2ccccn2)c2ccc(F)cc2)c1O (stereo not drawn)	6%	-3%	-12%	4%	-1%	23%	2.1%	-4%
43	Cn1c(N)c(C(=O)COC(=O)c2cc(-c3ccco3)nc3ccccc23)c(=O)n(C)c1=O	2%&2%&2%	-5%	-16%	3%	-25%	?	?	?
44	CC(Oc1ccc2c3c(c(=O)oc2c1)CCC3)C(=O)NC1CCN(Cc2ccccc2)CC1 (stereo not drawn)	.	-6%	-5%	.	-3%	3%	.	.
45	CC(C)(Cc1cccc(CC(C)(C)C(=O)O)c1)C(=O)O	.	-10%	8%	.	11%	13%	.	.
46	CCOC(=O)c1cc(-c2ccccc2)n(CCC(=O)N2CCN(c3ccccn3)CC2)c1C	2%	-16%	-11%	?	-17%	-53%	-4.3%	?
47	O=S(=O)(c1ccc(NC(=S)Nc2ccccc2)cc1)N1CCOCC1	4%	29%	5%	18%	3%	15%	-3.2%	3%
48	CCOc1ccc(-n2ccnc(SCC(=O)NC3CCCC3)c2=O)cc1	-9%	-18%	4%	?	4%	.	.	.
49	O=C(CCSc1nc2ccccc2s1)N/N=C/c1c(O)ccc2ccccc12	?	-5%	2%	?	-8%	?	-1.6%	13µM*
50	Clc1ccc(C2Nc3cccc4cccc(c34)N2)c(Cl)c1	?	-14%	-17%	7%[46.1 µM]	.	.	.	.
51	CC(C)CN(C(=O)CN1CCN(S(=O)(=O)c2ccccc2)CC1)c1c(N)n(CC(C)C)c(=O)[nH]c1=O	-16%	-9%	-1%	1%	0%	8%	0.6%	5%
52	Cc1ccc(C(=O)Nc2cc(=O)n(C)c(=O)n2C)o1	-8%	-3%	-2%	-15%	-33%	1%	-8.7%	-16%
53	CCCCN(CCCC)CCNC(=O)Cn1nc(C)n2c(cc3sccc32)c1=O	-3%[46.1 µM]	-6%	.	.	.	.	-0.6%	-9%
54	CN(C)CCN(C(=O)c1cc(Cl)sc1Cl)c1nc2ccc(F)cc2s1	23%	36%[activator]	-14%	?	-14%	3%	-5.4%	2%
55	Cc1nn(Cc2ccc(Cl)cc2)c(C)c1NC(=O)c1c(-c2ccccc2)noc1C	-11%	?	-10%	-1%	17%	-11%	-2.7%	?
56	CC(C)COc1cccc(C(=O)NNC(=O)C2COc3ccccc3O2)c1 (stereo not drawn)	.	-14%	-2%	.	-1%	14%	.	.
57	CCCCC(CC)c1nnc(NC(=O)c2cccs2)s1 (stereo not drawn)	.	-9%	8%	.	-6%	-61%	.	.
58	CC(C)Oc1ccccc1C1CC(=O)Nc2cc3c(cc21)OCO3 (stereo not drawn)	6.5µM*	?	13%	?	2%	-33%	0.6%	1%
59	COc1ccc(-c2cc(C(C)=O)c(C)n2CCC(=O)Nc2ccc(C(F)(F)F)cc2)cc1	.	?	.	?	.	.	-12%	13%
60	CC12C(=O)N(c3nccs3)C(=O)C1C1C=CC2C1 (stereo not drawn)	20%	-3%	-27%	1%	-3%	-6%	2.9%	10%

# From PubChem BioAssay

# Random draw from the library (roughly 4.7% active in at least one column).
